Source: PubChem BioAssay
H5N1 antiviral = MDCK cell protection from H5N1 avian flu | cytopathic effect, luminescence, 72 h; hits give high values; no value below 0 was filed and about half of the inactive calls have no number; reference of the scale not given here | inhibition, % at 50 µM | 96,000 tested, 0.07% active | AID 740, 2007; in the data active = inhibition above about 25%
* hit, by the source's call; i = inactive.

SMILES	H5N1 antiviral
O=C(CSC1=NCCS1)Nc1cccc2ccccc12	3.3
CCOC(=O)C(C#N)C(Cc1ccccc1)c1ccco1 (stereo unspecified)	i
COc1cc(-c2noc(CCC(=O)Nc3cccnc3)n2)cc(OC)c1OC	i
CCOC(=O)c1nnn(-c2nonc2N)c1-c1ccc(C)cc1	0.5
CCN(Cc1cc2cc(OC)ccc2[nH]c1=O)C(=O)Cc1ccc(OC)cc1	i
O=C(CCN1C(=O)C2C3C=CC(C3)C2C1=O)N1CCN(c2ccccc2F)CC1 (stereo unspecified)	i
CNC(=S)N/N=C(\C)c1ccc(-n2ccnc2)cc1	1.1
O=C(Cn1c(=O)oc2cc(S(=O)(=O)N3CCCC3)ccc21)NCc1ccc(F)cc1	1.3
Clc1ncnc2scc(-c3ccccc3)c12	0.1
CCOc1cccc2cc(C(=O)N3CCN(C/C=C/c4ccccc4)CC3)c(=O)oc12	i
Cc1cc(OCC(=O)NCCN2CCOCC2)ccc1Br	0.5
O=S(=O)(Nc1nc2ccccc2nc1NCc1ccco1)c1ccccc1	0.5
O=C(NCCCN1CCOCC1)c1c(F)cccc1F	i
CCOC(=O)c1c(NC(=O)c2ccc(Br)o2)sc(C)c1CC	i
FC(F)(F)c1cccc(Oc2ccc3c(C(F)(F)F)cc(C(F)(F)F)nc3n2)c1	i
COc1cc(OC)c(C(=O)Nc2ccc(N(C)C)cc2)cc1OC	0.5
Cc1ccc(O)c(-c2cc(C(=O)NCc3ccncc3)[nH]n2)c1	2.1
CS(=O)(=O)N(CCc1ccccc1)CC(=O)N1CCN(c2ccccc2)CC1	2.8
CCOC(=O)C1C(=O)CC(C)(O)C(C(=O)OCC)C1c1ccc(C)s1 (stereo unspecified)	0.7
CCn1c(C)nc2cc(-c3nc4n(n3)Cc3ccccc3-4)ccc21	i
CSc1ccc(Cl)c(C(=O)OCC(=O)N2CC(C)OC(C)C2)c1 (stereo unspecified)	i
C/C(N)=C(/C#N)C(=O)CSc1nnc(Nc2c(C)cccc2C)s1	0.4
CCCNC(=O)NC(=O)COc1c(F)c(F)cc(F)c1F	i
Cc1nc2c(ccc3nc(NC(=O)c4ccc(S(=O)(=O)N(C)C)cc4)sc32)s1	0.1
CN(CC(=O)Nc1cccnc1)S(=O)(=O)c1ccccc1	i
O=C(CCC(=O)OCC(F)(F)C(F)F)NCc1ccccc1	1.5
CC(=O)c1sc(NC(=O)C=C(C)C)nc1C	1.7
CCCCOC(=O)CSc1nnc(-c2cc(OC)c(OC)c(OC)c2)o1	2.5
CCOC(=O)NC(Nc1nnc(SCC)s1)(C(F)(F)F)C(F)(F)F	i
Cc1ccc(CNC(=O)C2CC(c3cccc([N+](=O)[O-])c3)=NO2)o1 (stereo unspecified)	i
CC1CCN(c2nncc3ccccc23)CC1	i
CCN(CC)S(=O)(=O)c1cc(C(=O)Oc2ccccc2OC)ccc1OC	0.7
CCCS(=O)(=O)n1nc(-c2ccc(OC)cc2OC)cc1N	i
COc1ccc(NC(=O)C2C(=O)NC3(C)CC2c2ccccc2O3)cc1 (stereo unspecified)	i
CC(C)C(=O)NC(=S)Nc1ccccc1C(=O)Nc1ccccc1	0.1
CCOC(=O)c1ccc(NC(=O)CSc2n[nH]c(-c3ccncc3)n2)cc1	0.8
CCN(CC)S(=O)(=O)c1ccc(-c2nnc(SCC(=O)Nc3cc(OC)cc(OC)c3)o2)cc1	i
COCC(C)NC(=O)c1cc(-c2cccc(OC)c2)on1 (stereo unspecified)	i
O=C(CCCc1nc2ccccc2s1)N1CCN(S(=O)(=O)c2cccs2)CC1	0.0
COc1ccc(NC2CCN(C3CC(=O)N(c4ccc(F)c(Cl)c4)C3=O)CC2)cc1 (stereo unspecified)	i
COc1cc(C2C(=O)N(C3CCCC3)CC(=O)N2Cc2ccco2)ccc1OC(C)C (stereo unspecified)	0.8
CCOC(=O)c1c(NC(=O)OC)sc(C(=O)N(CC)CC)c1C	0.2
Cc1ccccc1OCCNc1ccc(C(F)(F)F)cc1[N+](=O)[O-]	i
Clc1ccc(-c2cc(COc3ccccc3)no2)cc1Cl	i
COc1cccc(-c2nc(CS(=O)(=O)CC(=O)NCc3ccc(Cl)cc3)c(C)o2)c1	i
COc1ccc(-c2cc3ccccc3n2CC(O)CN2CCN(CCO)CC2)cc1 (stereo unspecified)	i
COc1ccc(OCC(=O)Sc2ccc(C)cc2)cc1	i
Cn1c2ccccc2c2c(C(=O)N3CCN(c4ccccn4)CC3)cn(C3CCCC3)c(=O)c21	i
CCOC(=O)c1ccc(NC(=O)C(C)NS(=O)(=O)c2ccc(OC)cc2)cc1 (stereo unspecified)	0.9
Cc1cc([N+](=O)[O-])ccc1NC(=S)NC(=O)C(c1ccccc1)c1ccccc1	0.9
CC(=O)NCCOc1cccc2cccnc12	i
CCCn1c(SCC(=O)NC(C)(C)C)nnc1C(C)C	0.5
N#CCCn1ccc(NC(=O)c2ccc(Cl)cc2)n1	2.5
Cc1cc(C)n(CC(O)CN(c2ccccc2)S(=O)(=O)c2ccccc2)n1 (stereo unspecified)	i
Cc1sc2nc(SCC(=O)N3CCCC3)[nH]c(=O)c2c1C	1.2
CCN(CC)C(=O)CSc1nnc(-c2ccc(O)cc2)n1CC1CCCO1 (stereo unspecified)	0.1
CCC(C)C(=O)Nc1nnc(-c2cccs2)s1 (stereo unspecified)	1.1
CCc1ccc(NC(=O)CCn2cccc2)cc1	i
Cc1ccc(-n2c(SCC(=O)N3CCOCC3)nnc2-c2cccnc2)cc1	0.4
N#CC1=C(N)SC(N)=C(C#N)C1c1cccc(O)c1	i

More entries follow.
SMILES	H5N1 antiviral
N/C(CN1CCCC1=O)=N\OC(=O)c1ccccc1Cl	1.7
CCc1ccccc1NC(=O)N1CCC(NC(=O)C(Cc2ccc(OC)c(OC)c2)NC(C)=O)CC1 (stereo unspecified)	0.1
COCn1c(-c2ccc(OC)c(OC)c2)nc2ccccc21	i
Cc1ccc(NC(=O)NCc2ccc3c(c2)OCO3)cc1	1.0
COc1cc(C2C(C#N)=C(N)Oc3c2oc(CO)cc3=O)ccc1OC(C)C (stereo unspecified)	1.1
Cc1nn(-c2ccccc2)c(Cl)c1C1C(C#N)=C(N)OC2=C1C(=O)CC(C)(C)C2 (stereo unspecified)	i
O=c1[nH]c(=O)n(Cc2ccc(F)cc2)c(O)c1C=NCCCO	i
Cc1ccc(NC(=O)COC(=O)Cn2c(C)csc2=O)cc1C	i
O=C(O)c1csc(Br)c1Br	0.2
C/C(=N\NS(=O)(=O)c1ccc(Br)cc1)c1cccs1	0.1
CCSc1nnc(NC(=O)c2ccc3c(c2)OCO3)s1	i
CCCOc1ccc(Oc2cc(C)nc(SC)n2)nn1	i
O=C(NCCC1=CCCCC1)C1CCN(S(=O)(=O)c2cccc3cccnc23)CC1	i
CC(Oc1ccccc1)C(=O)Nc1ccc(S(=O)(=O)NCC2CCCO2)cc1 (stereo unspecified)	0.9
CCc1ccc(NC(=O)Cn2c(SC)nc3ccccc32)cc1	i

Part of the list above in order of count of non-hydrogen atoms, rising:
SMILES	H5N1 antiviral
O=C(O)c1csc(Br)c1Br	0.2
CC(=O)c1sc(NC(=O)C=C(C)C)nc1C	1.7
CCC(C)C(=O)Nc1nnc(-c2cccs2)s1 (stereo unspecified)	1.1
CCc1ccc(NC(=O)CCn2cccc2)cc1	i
N#CCCn1ccc(NC(=O)c2ccc(Cl)cc2)n1	2.5
O=C(CSC1=NCCS1)Nc1cccc2ccccc12	3.3
Clc1ccc(-c2cc(COc3ccccc3)no2)cc1Cl	i
CCOC(=O)c1c(NC(=O)c2ccc(Br)o2)sc(C)c1CC	i
CCOC(=O)c1nnn(-c2nonc2N)c1-c1ccc(C)cc1	0.5
Cc1ccccc1OCCNc1ccc(C(F)(F)F)cc1[N+](=O)[O-]	i
CCOC(=O)C1C(=O)CC(C)(O)C(C(=O)OCC)C1c1ccc(C)s1 (stereo unspecified)	0.7
CCCCOC(=O)CSc1nnc(-c2cc(OC)c(OC)c(OC)c2)o1	2.5
O=S(=O)(Nc1nc2ccccc2nc1NCc1ccco1)c1ccccc1	0.5
O=C(CCCc1nc2ccccc2s1)N1CCN(S(=O)(=O)c2cccs2)CC1	0.0
Cc1cc([N+](=O)[O-])ccc1NC(=S)NC(=O)C(c1ccccc1)c1ccccc1	0.9
COc1ccc(-c2cc3ccccc3n2CC(O)CN2CCN(CCO)CC2)cc1 (stereo unspecified)	i
CCOc1cccc2cc(C(=O)N3CCN(C/C=C/c4ccccc4)CC3)c(=O)oc12	i
CCN(CC)S(=O)(=O)c1ccc(-c2nnc(SCC(=O)Nc3cc(OC)cc(OC)c3)o2)cc1	i
CCc1ccccc1NC(=O)N1CCC(NC(=O)C(Cc2ccc(OC)c(OC)c2)NC(C)=O)CC1 (stereo unspecified)	0.1

Additional entries:
SMILES	H5N1 antiviral
CCOC(=O)c1c(C)[nH]c(C(=O)Cn2nnc(-c3ccccc3Cl)n2)c1C	i
COC(=O)c1[nH]c2ccc(C)cc2c1NC(=O)NC1CCCCC1	0.1
COc1ccc(/C=N/NC(=O)c2cc(C34CC5CC(CC(C5)C3)C4)[nH]n2)cc1O	i
CCOc1ccccc1-n1c(SCC(=O)N2CCCC2)nnc1-c1ccoc1C	0.2
CC1CCN(CCc2nc3cc(NS(=O)(=O)c4ccc(F)cc4)ccc3n2C)CC1	1.1
Nc1ccc(-n2cnc3cc([N+](=O)[O-])ccc32)cc1	i
COC(=O)c1cc(OC)c(OC)cc1NC(=O)c1ccoc1C	i
COc1ccc(C(=O)NCC(C)(C)SCc2c(C)cc(C)cc2C)cc1	1.8
Cc1cc(C)c2c(n1)nn1c(NCCN3CCOCC3)cc(C)nc21	i
Cc1cc(Nc2cnc3ccccc3n2)n(-c2ccccc2)n1	i
Cc1cc(C(=O)CSc2nnc(-c3ccccc3)n2C)c(C)n1C	3.5
CSc1ccc(CNc2ccccc2)cc1	i
O=C(c1ccc(COc2ccccc2Br)cc1)N1CCCCC1	i
COc1ccc(C2(C(N)=O)CCCCC2)cc1OC	i
COc1ccc(C)cc1NC(=O)c1ccc2c(c1)OCO2	i

Fetched by structure from the list above, 2 records:
SMILES	H5N1 antiviral
CC(=O)c1sc(NC(=O)C=C(C)C)nc1C	1.7
CSc1ccc(CNc2ccccc2)cc1	i

Next records follow:
SMILES	H5N1 antiviral
COc1ccc(N2CCN(C(=O)c3cn(C4CCCC4)c(=O)c4c3c3ccccc3n4C)CC2)cc1	0.6
O=S(=O)(NCc1cn2ccsc2n1)c1ccc2c(c1)OCCO2	i
O=S(=O)(Cc1cnc(Cl)s1)c1ccccc1	i
N#Cc1ccc(OCC(=O)N/N=C2\CCc3ccccc32)cc1	2.5
Cc1csc(SCC(=O)N2CCN(S(=O)(=O)c3ccccc3)CC2)n1	1.0
COc1ccc(CNCc2cc3c(C(C)(C)C)nn(-c4ccccc4)c3[nH]c2=O)cc1	i
CCOC(=O)c1ccc(NC(=O)CSc2nnc(CNC(=O)c3ccccc3F)o2)cc1	i
CCC(C)(C(=O)NC1CCCC1)N(Cc1cccs1)C(=O)Cc1cccs1 (stereo unspecified)	0.0
Cc1ccc(-n2[nH]c(C)c(C=NC34CN5CN(CN(C5)C3)C4)c2=O)cc1C	i
N#Cc1c(C(F)(F)F)cc(-c2ccco2)nc1SCc1ccccn1	1.6
O=C(Nc1ccc2nsnc2c1)c1cccs1	3.1
Cc1ccc(S(=O)(=O)NCC(=O)N(CC(=O)NC2CCCC2)c2ccc3c(c2)OCCO3)cc1	0.1
CCn1cc(C(=O)N(CCCN2CCOCC2)Cc2ccco2)c(=O)c2ccc(C)nc21	0.1
Cn1c(SCC(N)=O)nnc1C1CCN(C(=O)NC2CCCCC2)CC1	0.2
Cc1csc(NC(=O)C2C3C=CC(O3)C2C(=O)O)n1 (stereo unspecified)	i
NC(=O)CSc1nnc(-c2cccnc2)n1CCc1ccccc1	i
Cc1cc(Cl)c(S(=O)(=O)Nc2ccc3c(c2)OCO3)cc1OCC(N)=O	1.5
Cc1cc(C)c2[nH]c(=O)c(CN(CC3CCCO3)C(=O)c3cnccn3)cc2c1 (stereo unspecified)	i
COc1cnc(N(C)C)nc1Sc1cccc(Cl)c1	0.2
O=C1NC(c2ccccc2)=C(c2ccc3ccccc3n2)C(c2ccncc2)N1 (stereo unspecified)	0.9
CCCCNC(=O)C1CC(c2ccccc2[N+](=O)[O-])=NO1 (stereo unspecified)	0.6
N#CC(=C=[N-])C1=C(C#N)C(c2ccccc2F)C([n+]2ccccc2)C(O)(C2CC2)N1 (stereo unspecified)	0.2
CN(C)c1nc(OCCOC(=O)Nc2ccc(Cl)cc2Cl)nc(N(C)C)n1	i
COC(=O)C(Cc1cnc(Cl)s1)(C(=O)OC)c1ccc([N+](=O)[O-])cc1[N+](=O)[O-]	i
O=C(CN1C(=O)NC2(CCCCC2)C1=O)Nc1ccc(S(=O)(=O)N2CCOCC2)cc1	0.2
CC(C)C(=O)c1cn(Cc2ccccc2C#N)c2ccccc12	0.5
Nc1c(C(=O)NC2CCCC2)sc2nc(-c3cccs3)ccc12	0.8
Clc1cccc(Nc2ncnc3ccc(Br)cc23)c1	11.7
Cc1ccc(C(C)C)c(OCC(=O)OCc2c(C)noc2C)c1	0.2
O=C(O)c1cccc(NS(=O)(=O)c2cccc3nsnc23)c1	0.7
COCCCN(Cc1ccccn1)S(=O)(=O)Cc1ccccc1	i
COc1ccc(-c2nn3c(-c4ccccc4)nnc3s2)cc1	2.8
c1ccc(-n2ncc3c(NCc4cccnc4)ncnc32)cc1	2.3
CC(=O)Nc1cc(C(=O)OCC(=O)c2ccc(Cl)cc2Cl)ccc1C	i
CCOC(=O)c1c(C)cc(=O)oc1C	i
C=CCN1C(=O)C2(C(C(=O)OCC)=C(N)Oc3ccccc32)c2c1c1ccccc1oc2=O (stereo unspecified)	i
CCOCN(C(=O)Cn1c(CO)nc2ccccc21)c1c(C)cccc1CC	1.3
Cc1cccc(OCC(=O)NNC(=O)c2cc3ccccc3oc2=O)c1	0.6
CCCCN(CCCNC(=O)c1c(C)cc(=O)oc1C)c1ccccc1	2.5
Cc1nn(-c2cccc(Cl)c2)c2c1C(c1cccnc1)C(C#N)=C(N)O2 (stereo unspecified)	0.3
Cc1c(CN2CCN(c3cccc(C(F)(F)F)c3)CC2)c(=O)n(-c2ccccc2)n1C	i
Cc1ccc(-n2ncc3c(N4CCC(C(N)=O)CC4)ncnc32)c(C)c1	0.2
COC(=O)c1cc(C(=O)CSc2nc(C)cc(C)n2)ccc1O	i
Cc1cccn2cc(-c3ccccc3)nc12	0.5
COC(=O)CNC(=O)C1CCCN1C(=O)OC(C)(C)C (stereo unspecified)	i

The list is partial (hit frequency here may not be typical).
